HPGD block: HPGD (human) dehydrogenase inhibition; purified HPGD, NADH fluorescence kinetic, PGE2 substrate; 150,000 tested, 4.3% active; AID 894; Potency, µM, for inactives: top-dose activity change, negative = inhibition, usual class: inhibitors; P15428; active = well fitted inhibition curve with a large enough effect (not every such curve was filed as active); inconclusive = small, poorly fitted or top-dose-only effect, or another doubt; inactive = no such curve, though single readings can be large or run the other way;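 note: top concentration of the series not given in the record; plate controls included wells without enzyme; inactives centre near -10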
Target sequence (P15428 whole entry, looked up): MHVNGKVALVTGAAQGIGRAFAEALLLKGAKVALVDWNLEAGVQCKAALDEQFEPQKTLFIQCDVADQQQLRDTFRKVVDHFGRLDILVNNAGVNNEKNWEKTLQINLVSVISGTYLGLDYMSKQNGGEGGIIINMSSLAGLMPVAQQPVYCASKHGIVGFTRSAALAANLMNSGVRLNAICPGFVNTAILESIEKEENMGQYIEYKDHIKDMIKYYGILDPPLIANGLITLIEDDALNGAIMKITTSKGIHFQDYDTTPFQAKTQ
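20 nM HPGD preincubated 15 min at room temperature with compound in 50 mM Tris-HCl pH 8, 0.01% Tween 20. Started with 1 mM NAD+ and 30 uM prostaglandin E2; NADH fluorescence (360/450 nm) read 5 times over 30-s intervals, last minus first.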
* hit, by the source's call; ? = inconclusive; & = joins results of further samples. % is set by controls: 0 for no effect and ±100 for the full control effect; potency is the fitted concentration of half-maximal effect. The list is partial; the hit share may differ from the screen's.

(1) C[N+]1=C(/C=C/Nc2ccccc2Cl)C(C)(C)c2ccccc21
  HPGD block: -22%

(2) CCc1ccc(N(CC(=O)NC)S(C)(=O)=O)cc1
  HPGD block: -7%

(3) COc1ccc(-c2cc3nc(C)c(CCC(=O)NC(C)CCc4ccco4)c(C)n3n2)c(OC)c1 (stereo not given)
  HPGD block: ?

(4) COC1=CC(C)C2CC3OC(=O)CC4C(C)=C(OC)C(=O)C([C@]2(C)C1=O)[C@]34C (stereo not given in full)
  HPGD block: -8%

(5) COc1cc2c(cc1NC(=O)CSc1ccc(Cl)cc1)oc1ccccc12
  HPGD block: -18%

(6) Cc1cc(C2CCCCC2)n(O)c(=O)c1
  HPGD block: -14%&-2%

(7) CCN(CC)S(=O)(=O)c1ccc(N2CCOCC2)c(C(=O)O)c1
  HPGD block: 3%

(8) O=C(CCCc1c[nH]c2ccccc12)N1CCN(S(=O)(=O)c2cccs2)CC1
  HPGD block: -3%

(9) CCCCCNC(=O)CSC1=N/C(=C\c2ccc(Cl)c(Cl)c2)C(=O)N1CC
  HPGD block: -9%

(10) O=C(O)[C@H](/C=C\c1ccccc1)c1ccccc1
  HPGD block: -10%

(11) COc1ccc(N=CC2=C(O)c3ccccc3C2=O)cc1
  HPGD block: -12%

(12) Cc1ccc(S(=O)(=O)N2CCN(C(=O)CN3C(=O)NC4(CCOc5ccccc54)C3=O)CC2)cc1 (stereo not given)
  HPGD block: -6%

(13) Cc1cc(C)nc(/N=C(/NC(=O)Nc2cccc(Cl)c2)Nc2ccccc2)n1
  HPGD block: -6%

(14) CC1CCN(C(=O)CCCOc2ccc(Cl)cc2)CC1
  HPGD block: 2.8µM*

(15) Cc1c(Br)c([N+](=O)[O-])nn1CC(=O)N1CCc2ccccc2C1
  HPGD block: -12%

(16) COC(=O)N1CCC2(CCCN(Cc3ccccc3)C2)CC1
  HPGD block: -2%

(17) O=C(NNC(=O)C1CCCO1)c1ccccc1Cl (stereo not given)
  HPGD block: -15%

(18) CC1CN(C2CCN(C(=O)c3ccccc3)CC2)CC(C)O1 (stereo not given)
  HPGD block: -2%

(19) Cc1c(C(=O)O)nnn1-c1ccccc1
  HPGD block: -15%

(20) COC(=O)c1cnn(-c2nc(OC)cc(OC)n2)c1C
  HPGD block: -4%

(21) O=c1cc(CN2CCN(C/C=C/c3ccccc3)CC2)c2cc(O)c(-c3ccccc3)cc2o1
  HPGD block: -6%

(22) COc1cc(/C=C/c2cc(OC(C)=O)c3ccccc3n2)c(OC(C)=O)c([N+](=O)[O-])c1
  HPGD block: -15%

(23) CSc1ccc(OC2CCN(Cc3ccccc3)CC2)cc1
  HPGD block: -14%

(24) O=C(COc1ccccc1)Nc1ncc2c(n1)CCCC2=O
  HPGD block: -16%

(25) COc1ccc(Nc2nc3c(C)cccc3cc2C#N)c(OC)c1
  HPGD block: 3%

(26) COc1cccc(C(=O)Nc2nnc(C(C)C)s2)c1
  HPGD block: -9%

(27) O=C(Nc1c(C(=O)Nc2ccc3c(c2)OCCO3)cnn1-c1ccccc1Cl)c1ccco1
  HPGD block: -15%

(28) COc1ccc(C(CC(=O)O)NC(=O)c2ccco2)cc1OC (stereo not given)
  HPGD block: -11%

(29) Cc1ccc(N(C)S(=O)(=O)c2cccc(C(=O)Nc3nc4ccccc4[nH]3)c2)cc1
  HPGD block: ?

(30) O=C(CN1CCCCC1)Nc1ccc(NC(=O)c2ccc(Cl)cc2)cc1Cl
  HPGD block: ?

(31) CCOC(=O)c1cc(-c2ccccc2)n(CC(=O)O)c1C
  HPGD block: 25µM*

(32) O=C(CN1CCN(S(=O)(=O)c2ccc(F)cc2)CC1)Nc1ccc2c(c1)OCO2
  HPGD block: -10%

(33) COc1cc(OC)cc(C(=O)n2nc(C)cc2C)c1
  HPGD block: -10%

(34) Cc1noc(NS(=O)(=O)c2ccc(NC(=O)CCn3c(=O)oc4ccccc43)cc2)c1C
  HPGD block: -19%

(35) Cn1c(=O)c2cc(NCc3ccccc3)nnc2n(C)c1=O
  HPGD block: ?

(36) Cc1c(C(N)=O)sc2ncn(CC(=O)N3CCC(C)CC3)c(=O)c12
  HPGD block: -10%

(37) CCOc1ccc(Cc2nnc(SCC(=O)c3ccc(OC)cc3)o2)cc1
  HPGD block: -6%

(38) CC(NC(=O)c1ccc(Br)cc1)c1ccccc1 (stereo not given)
  HPGD block: -6%

(39) Cc1ccccc1N1CCN(C(=O)c2ccccc2NC(=O)C2CC=CCC2C(=O)O)CC1 (stereo not given)
  HPGD block: -2%

(40) COc1cccc(C2c3c(oc4ccc(F)cc4c3=O)C(=O)N2CCN2CCOCC2)c1OC (stereo not given)
  HPGD block: -4%

(41) Fc1ccccc1N1CCN(c2nc3ccccc3n3nnnc23)CC1
  HPGD block: ?

(42) COc1cc(/C=N/NC(=O)c2cc(-c3cccn3C)n[nH]2)cc(OC)c1OC
  HPGD block: -19%

(43) O=c1c2[nH]c3ccc(Cl)cc3c2ncn1CCN1CCCCC1
  HPGD block: -22%

(44) Cn1c(SCC(=O)Nc2ccccc2F)nnc1-c1cccnc1
  HPGD block: -5%

(45) CCOC(=O)/C(=N\Nc1ccccc1Cl)N1CCN(Cc2ccccc2)CC1
  HPGD block: -8%

(46) COc1ccc(Cc2nc(-c3ccc(Br)o3)no2)cc1OC
  HPGD block: -11%

(47) Cc1ccc(NC(=O)CCSc2ccccn2)cc1
  HPGD block: -17%

(48) O=C(NNC(=O)c1cccs1)Nc1cccc(Cl)c1
  HPGD block: -14%

(49) CC(Oc1ccccc1)C(=O)NCc1cccnc1 (stereo not given)
  HPGD block: -10%

(50) CC1CN(C(c2ccco2)c2sc3ncnn3c2O)CC(C)O1 (stereo not given)
  HPGD block: -21%

(51) Cc1cccc(C)c1NC(=O)c1ccc(-n2cncn2)nc1
  HPGD block: -5%

(52) COc1ccc(C2CC(C(F)(F)F)n3ncc(C(=O)Nc4c(C)n(C)n(-c5ccccc5)c4=O)c3N2)cc1 (stereo not given)
  HPGD block: -8%

(53) Cc1ccc(S(=O)(=O)NNC(=O)c2csnn2)cc1
  HPGD block: -7%

(54) CCn1cc(/C=N\NC(=O)Cc2ccc(Cl)cc2)cn1
  HPGD block: -4%

(55) COc1ccc(-n2c(SCC(N)=O)nnc2-c2cccnc2)cc1
  HPGD block: -6%

(56) O=C(Oc1ccccc1)N1CCC2(CCCN(c3ccncc3)C2)CC1
  HPGD block: -10%

(57) COc1ccc(C2=C(C#N)C(=O)OC2)cc1
  HPGD block: -11%

(58) CCCCNc1nc(C)nc2c1nc(-c1ccccc1)n2CCCCN(CC)CC
  HPGD block: ?

(59) COC(=O)c1cc2oc(C)cc2n1CC(=O)N(C)c1ccccc1
  HPGD block: -1%

(60) N#Cc1nc(COc2ccc(F)cc2)oc1N1CCCC1
  HPGD block: -8%

The list continues.
nr	SMILES	HPGD block
61	Cc1ccc(N(C(=O)CCC(=O)Nc2cc(C)on2)C(C(=O)NC2CCCC2)c2ccncc2)cc1 (stereo not given)	-4%
62	O=C(/C=C/c1ccccc1)c1ccccn1	-13%
63	CCCCCCCCCCCCC/C=C/[C@@H](O)[C@H](COP(=O)([O-])OCC[N+](C)(C)C)NC(=O)CCCCCCCCCCCCCCCCC	-1%
64	N#Cc1cc2c(nc1SCc1cccnc1)CCCC2	13µM*
65	COCCN1CSC(=S)N(Cc2ccco2)C1	-13%
66	COc1ccc(C(=O)OCCN2CCOCC2)cc1	-8%
67	CC1=C(C2=C(C)C(C(C)C)C3=C(C(=O)C(O)C3O)C2O)C(O)C2=C(C(O)C(O)C2=O)C1C(C)C (stereo not given)	-2%
68	O=C(NCc1ccco1)c1cccc(NS(=O)(=O)c2cccc(F)c2)c1	0%
69	CCc1ccccc1NC(=O)NC1CCCCC1	-22%
70	CC12CCC(C(=O)Nc3ccccc3N3CCOCC3)(CC1=O)C2(C)C (stereo not given)	-6%
71	CS(=O)(=O)N1CCC[C@@]2(CCN(C(=O)Nc3cccc(F)c3)C2)C1	6%
72	CCn1c(=O)cc(SCC(=O)NCCN2CCN(Cc3ccccc3)CC2)c2ccccc21	-3%
73	O=C(O)c1cc(NCc2cccs2)ccc1N1CCOCC1	-17%
74	CCC1Sc2ccccc2N(CC(=O)NCCC(C)C)C1=O (stereo not given)	-12%
75	CCNc1nc(NCC)nc(Oc2ccc(N)cc2)n1	-2%
76	COc1cc(C(=O)NCc2ccco2)c(Br)c(OC)c1OC	-21%
77	CCOC(=O)c1ccc(NC(=S)N2CCSC2c2c(F)cc(F)cc2F)cc1 (stereo not given)	-5%
78	COc1ccccc1NC(=O)CSc1nnc(C2CCCCC2)n1C	-11%
79	CC(=O)Nc1ccc(N2C(=O)c3cccc(NC(C)=O)c3C2=O)cc1	-3%
80	O=C(c1ccncc1)N1CCC2(CCCN(c3ccc(-c4ccccc4)cc3)C2)CC1	-1%
81	COc1cccc(Nc2nc3ccccc3nc2NS(=O)(=O)c2cccs2)c1	-29%
82	CCNC(=O)COC(=O)COc1ccc(Cl)cc1C	-9%
83	C=CCn1ncc(OC)c(Cl)c1=O	-3%
84	Cc1cc2c(cc1C)CSC(c1ccccc1O)SC2	-5%
85	O=[N+]([O-])c1cccc2cn[nH]c12	-7%&-13%&-20%
86	O=C(O)[C@@H]1[C@@H](C(=O)O)[C@@]23CCCC2=C2CC[C@@]3(C(=O)O)[C@@]3(C(=O)O)C[C@@]213	-8%
87	COc1cc(C(=O)OCC(=O)Nc2ccc(C(C)=O)cc2)ccc1OCC(=O)N1CCOCC1	-27%
88	CCOC(=O)c1c(C)oc2ccc(OCC(N)=O)cc12	-6%
89	CC1(OC(=O)c2cccs2)C(=O)C=C2C=C(c3ccc(C#N)cc3)OC=C2C1=O (stereo not given)	-10%&-3%
90	CC(=O)Nc1ccc(S(=O)(=O)Nc2ncccn2)cc1	0%
91	Cc1[nH]c(=O)[nH]c(=O)c1NS(=O)(=O)c1ccc2c(c1)CCCC2	0%
92	Cc1ccc2c(CC(=O)NNC(=O)c3ccccc3)coc2c1	-7%
93	CCc1ccccc1NC(=O)CSC1=C(C#N)C(c2ccc(O)c(OC)c2)C2=C(CCCC2=O)N1 (stereo not given)	-4%
94	COc1ccc2[nH]c3c(c2c1)CN(C)CC3	-11%
95	CC(=O)c1ccc(OCCn2cnc3ccccc32)cc1	-21%
96	COCCN1CC(O)=C(c2nc3ccccc3c(=O)[nH]2)C1=N	?
97	CCN(CC)C(=O)C1CCCN(C/C=C/c2ccccc2)C1 (stereo not given)	-2%
98	COc1ccccc1NC(=S)NC(=O)c1ccc(Cn2cc(Br)cn2)cc1	-1%
99	CCn1nc(C(=O)Nc2nc3ccc(C)cc3s2)c2ccccc2c1=O	-3%
100	COc1cc(CNCCNCC(C)O)ccc1OCc1ccc(Cl)nc1 (stereo not given)	-1%
101	CC1CCc2nn(CC(=O)N3CCc4ccccc43)cc2C1 (stereo not given)	-6%
102	CC(C)(C)OC(=O)N/N=C/c1cc(N=Nc2ccccc2)ccc1O	-5%
103	COc1cc(OC)c(C2N(c3ccccn3)C(=O)C3CCCN32)cc1OC (stereo not given)	-15%
104	O=C(NCc1nc(-c2ccccc2)no1)c1cccs1	-11%
105	Cc1cccc(C(C)C)c1NC(=O)c1cccnc1	-1%
106	CCN(CC(=O)Nc1cc(C)nn1-c1nc(C)cc(C)n1)Cc1ccccc1	0%
107	O=C(CSc1nnc(-c2cccs2)o1)N1CCOCC1	-21%
108	O=C1NCCCc2c1oc1cc(Br)c(O)c(Br)c21	-23%
109	COC(=O)c1ccccc1NC(=O)COC(=O)CSCC(=O)N1CCOCC1	6%
110	CCc1ccc2nc(Nc3nc(COC)cc(=O)[nH]3)nc(C)c2c1	-9%
111	O=C(NCc1nc(-c2ccccc2)no1)c1ccc2c(c1)OCO2	-4%
112	COc1ccc(NCC(=O)Nc2ccccc2C#N)cc1Cl	?
113	CC(C)c1nnc(SCC(=O)NCc2ccc3c(c2)OCO3)n1C	-15%
114	Cc1cc(N2CCOCC2)c(F)cc1C(=O)c1ccccc1	?
115	CCCc1c(O)c2ccccc2n(-c2ccccc2)c1=O	?
116	Cc1noc(C)c1S(=O)(=O)N1CCCC(C(=O)NCCc2ccc(Cl)cc2)C1 (stereo not given)	-10%
117	Cc1cccc(C)c1OCc1nnc(SCC(=O)NCCc2ccccc2)o1	-14%
118	CCOC(=O)C1=C(c2ccccc2)O/C(=C(/C#N)C(F)(F)F)S1	-7%
119	CCC(C)(C)NC(=O)CN(C(=O)c1snc(C(N)=O)c1N)c1ccc(OC)c(OC)c1	-9%
120	COc1ccccc1NC(=O)CSc1nnc(CNC(=O)COc2ccc(Cl)cc2)o1	-9%

Following part.
nr	SMILES	HPGD block
121	COc1ccc(N(CC(=O)N2CCc3ccccc3C2)S(C)(=O)=O)cc1	-3%
122	Cc1ccc(C(=O)CSc2nnc(-c3ccccc3)o2)cc1	-5%
123	CN1CCc2c(sc3c2c(=O)n(-c2ccccc2)c2nnc(SCc4ccc(Cl)cc4)n32)C1	-29%
124	O=C(CSc1ncnc2c1nnn2Cc1ccccc1F)N1CCN(c2ccccc2)CC1	-17%
125	O=C(CCc1ccccc1)Nc1nnc(-c2ccccn2)o1	?
126	CN(Cc1ccccc1)C(=O)[C@H](Cc1ccc2ccccc2c1)NC(=O)[C@@H]1CCCN1C(=O)Nc1ccccc1[N+](=O)[O-]	-6%
127	COc1ccc(Cc2nnc(SCC(=O)NCc3ccco3)o2)cc1	20µM*

Screens: PubChem, National Center for Advancing Translational Sciences (NCATS)
